# Source: PubChem (National Center for Advancing Translational Sciences (NCATS))
# SARS PLpro yeast – inhibitors of SARS-CoV papain-like protease in yeast. Potency, µM (highest dose often 32.9 µM), for inactives: top-dose activity, positive = growth rescue. S. cerevisiae expressing SARS-CoV PLpro, growth rescue; control for the full effect not named in the record. actives 0.19% (n = 330,000); note: 0% is about no effect; nearly all actives have a fitted effect of over 55% in size; growth read by luminescence after 48 h
# NS1 function inh – inhibitors of influenza NS1 protein function | Potency, µM (highest dose often 46.1 µM), for inactives: top-dose activity, positive = more growth | actives 0.4% (n = 270,000) | AID 2326 | S. cerevisiae slowed by influenza A NS1, growth recovery by OD600; note: actives are rising curves; nearly all actives have a fitted effect of over 50% in size
#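 In this qHTS, NS1 from influenza A is expressed in budding yeast, where it slows growth. Cells are switched from glucose to 2% galactose medium (pH 6.0, -URA), treated with compound, and growth recovery is read at OD600.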
# RE007 growth inh – less growth of the S. pombe RE007 Vpr strain; S. pombe RE007 Vpr strain, BacTiter-Glo ATP luminescence, 24 h; control for the full effect not named in the record; Potency, µM (doses to about 92.2 µM), inactives show at the highest dose activity change, negative = less growth; actives 0.21% (n = 360,000); AID 651644; active = well fitted falling curve with a large enough effect; inconclusive = small, poorly fitted or top-dose-only effect; inactive = no such curve, though single readings can be large or run the other way;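 note: % is set by controls: 0 for no effect and ±100 for the full control effect; nearly all actives have a fitted effect of over 50% in size; the assay follows cell death caused by Vpr and the record does not say whether a fall means rescue or toxicity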
#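 Fission yeast strain RE007, carrying one chromosomally integrated HIV-1 vpr copy, was seeded at OD 0.01 in PMG+AL medium with 23 nL pinned compound. After 24 h at 30 °C and 99% humidity, viability was read by BacTiter-Glo luminescence.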
# Lassa entry inh – blocks Lassa virus binding to or entry into cells; Lassa virus pseudotype entry inhibition, cell reporter; control for the full effect not named in the record; Potency, µM (highest dose often 37.9 µM), for inactives: at the highest dose activity change, negative = inhibition, usual class: inhibitors; actives 1.2% (n = 300,000); AID 540256; active means well fitted inhibition curve with a large enough effect; inconclusive means small, poorly fitted or top-dose-only effect, or effect the other way; inactive means flat fitted curve, though single readings scatter; tested in HEK293 cells; note: % is set by controls: 0 for no effect and ±100 for the full control effect; nearly all actives have a fitted effect of over 50% in size; luciferase read-out
# StopGo reporter – lowers the luciferase signal of an FMDV 2A StopGo reporter | AID 1159524 | Potency, µM (highest dose often 57.9 µM), for inactives: at the highest dose signal change, negative = less light | human cells with a luciferase reporter of 2A StopGo recoding; control for the full effect not named in the record | actives 1.2% (n = 410,000); active = well fitted falling curve with a large enough effect; inconclusive = small, poorly fitted or top-dose-only effect; inactive = no such curve, though single readings can be large or run the other way; tested in HEK293T cells; note: % is set by controls: 0 for no effect and ±100 for the full control effect; nearly all actives have a fitted effect of over 45% in size; luciferase light after 4 h
# Marburg entry inh – Marburg virus entry inhibition; Marburg virus pseudotyped entry inhibition, cell reporter; control for the full effect not named in the record; about a third of the inactives were read at about 46 µM; actives 1.8% (n = 300,000); Potency, µM (top dose mostly 37.8 µM), without a hit: at the top dose activity change, negative = inhibition, usual class: inhibitors; active = well fitted inhibition curve with a large enough effect; inconclusive = small, poorly fitted or top-dose-only effect, or effect the other way; inactive = flat fitted curve, though single readings scatter; tested in HEK293 cells; about a fifth of its hits are not listed in these tables; note: % is set by controls: 0 for no effect and ±100 for the full control effect; luciferase read-out
# Cruzain noTriton – blocks cruzain activity in detergent-free assay. Potency, µM, for the others: max response, negative = inhibition, usual class: inhibitors. actives 2.3% (n = 200,000). purified cruzain, Z-FR-AMC fluorescence, no detergent. P25779; active = well fitted curve in the direction sought with a large enough effect; inconclusive = small, poorly fitted or top-dose-only effect, or another doubt; inactive = no such curve, though single readings can be large; an effect the other way counts as inactive or inconclusive;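 note: plate controls were enzyme without inhibitor for no effect and buffer without enzyme for full effect; nearly all actives have a fitted effect of over 40% in size; top concentration of the series not given in the record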
# Target sequence (P25779 123-467 limits assumed): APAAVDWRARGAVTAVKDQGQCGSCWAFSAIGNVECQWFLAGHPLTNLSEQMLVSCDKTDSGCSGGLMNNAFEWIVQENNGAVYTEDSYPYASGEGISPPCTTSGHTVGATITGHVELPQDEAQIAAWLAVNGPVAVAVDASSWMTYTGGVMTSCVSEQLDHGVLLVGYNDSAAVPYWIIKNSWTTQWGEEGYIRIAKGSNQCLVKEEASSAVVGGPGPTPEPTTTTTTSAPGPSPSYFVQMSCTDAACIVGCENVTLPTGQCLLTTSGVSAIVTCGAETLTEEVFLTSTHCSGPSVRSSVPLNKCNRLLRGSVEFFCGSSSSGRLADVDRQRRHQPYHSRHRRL
#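 Detergent-free condition (0.00005% Triton X-100) in acetate buffer pH 5.5 with DTT. 1.5 nM enzyme and compound were pre-mixed 15 min, then 2 uM Z-FR-AMC substrate added; reaction progress from fluorescence change between first and third reads (60 s).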
# Cruzain inh Det – blocks cruzain activity in presence of Triton detergent; P25779; purified cruzain, Z-FR-AMC fluorescence, 0.01% Triton; Potency, µM, for inactives: max response, negative = inhibition, actives largely listed as inhibitors; actives 0.43% (n = 200,000); AID 1478; active = well fitted curve in the direction sought with a large enough effect; inconclusive = small, poorly fitted or top-dose-only effect, or another doubt; inactive = no such curve, though single readings can be large; an effect the other way counts as inactive or inconclusive;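 note: plate controls were neutral wells for no effect and buffer without enzyme for full effect; nearly all actives have a fitted effect of over 40% in size; top concentration of the series not given in the record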
#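 In this qHTS format, compounds are incubated with 1.5 nM cruzain for 15 min at room temperature before 2 uM Z-FR-AMC is added. Release of AMC is followed at 360/450 nm, and progress is taken as the 60 s fluorescence difference.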
# Numbers without * were called inactive; ? = inconclusive; / = not tested or not shown; & = joins results of further samples; [ ] = dose if it differs, or a comment. Unless noted, calls come from the whole dose curve; as a rule, active means well fitted rising curve with a large enough effect; inconclusive means small, poorly fitted or top-dose-only effect; inactive means no such curve, though single readings can be large or run the other way. Potency is the fitted concentration of half-maximal effect.
SMILES,SARS PLpro yeast,NS1 function inh,RE007 growth inh,Lassa entry inh,StopGo reporter,Marburg entry inh,Cruzain noTriton,Cruzain inh Det
CC(Nc1ccnc2cc(Cl)ccc12)c1ccc(S(N)(=O)=O)cc1 (stereo not given),15%,-1%,-2%,?,-14%,-2%[46.1 µM],/,/
Cc1ccc(NC(=O)CCC(=O)NNC(=O)COc2ccccc2)cc1C,-1%,5%,17%,1%,3%,-4%,-16%,-2.6%
Cc1ccc(S(=O)(=O)N2CCNC(=O)C2)c(C)c1,-2%,/,8%,-6%,9%,?,/,/
Cc1cc(NC2CCCCC2)n2c(n1)nc1ccccc12,1%,1%,-18%,/,6%,/,/,/
Cc1ccc2nc3c(cc(C(=O)NCC4CCCO4)c(=N)n3C(C)C)c(=O)n2c1 (stereo not given),/,/,/,20%[46.1 µM],-8%,13%[46.1 µM],-22%,?
O=[N+]([O-])c1cccc(/C=C/C=N/Nc2nc(N3CCCCC3)nc(N3CCCCC3)n2)c1,-5%,/,10%,/,-21%,13%[46.1 µM],/,/
COc1ccc(CNC(=O)COc2cc(O)c3c(c2)OC(C)(C)CC3=O)c(OC)c1,-11%,-37%,-12%,/,-23%,/,/,/
Cc1ccc(C)c(N2CCN(C(=O)c3ccc4nc(-c5ccco5)c(-c5ccco5)nc4c3)CC2)c1,3%,?,-7%,0%,-19%,?,0%,-2.8%
O=CN1CCN(c2c([N+](=O)[O-])c(=O)oc3ccccc23)CC1,0%,0%,-1%,/,?,/,/,/
Cc1cc(NC(=O)c2cccc(S(=O)(=O)Nc3cccc(C(=O)O)c3)c2)no1,8%,10%,4%,-1%,1%,0%,/,/
Cn1c(=O)c2c(-c3ccccc3)n(-c3cccc(C#N)c3)cc2n(C)c1=O,/,/,/,-22%[46.1 µM],-25%,-10%[46.1 µM],-5%,-5.4%
CCCn1c(SCC(=O)c2cc(C)c(C)cc2C)n[nH]c1=O,-7%,-9%,0%,-27%,?,-19%,-5%,-2.6%
O=[N+]([O-])NC1=NCN(Cc2ccco2)CN1Cc1ccco1,-6%,?,2%,9%,-4%,0.28µM*,3%,-0.6%
CNC(=S)N/N=C/c1cn(Cc2ccc(F)cc2)c2ccccc12,16%,3%,21%,?,?,?,?,-13%
CC(C)C(NS(=O)(=O)c1cccc2nsnc12)C(=O)NC1CCCCC1 (stereo not given),6%,11%,-6%,/,-23%,/,/,/
Cc1ccc(CN(C(=O)c2ccco2)C(C(=O)NC2CCCC2)c2cccnc2)cc1 (stereo not given),0%,-5%,13%,-1%,-8%,?,/,/
Cc1nc(C(C)N(C)Cc2nc(-c3ccc4c(c3)OCO4)no2)c(C)s1 (stereo not given),-1%,-11%,-7%,7%,-4%,?,/,/
CCN1CCCC1CNC(=O)c1cn(C)c2ccc(S(=O)(=O)N3CCCCCC3)cc2c1=O (stereo not given),0%,-2%,-3%,-8%,14%,-21%,-10%,-1.2%
COCC(O)CSc1c([N+](=O)[O-])nc(C)n1Cc1ccc(OC)c([N+](=O)[O-])c1 (stereo not given),14%,4%[9.22 µM],4%,0%,-21%,5%,-1%,-9.7%
CCc1ccc(NC(=O)Cn2c(=O)n(Cc3ccc4c(c3)OCO4)c(=O)c3oc4ccccc4c32)cc1,/,/,/,-9%[46.1 µM],-11%,/,0%,-0.3%
COc1ccccc1C(=O)NC(=O)COC(=O)c1cccc(C)c1O,-2%,/,-4%,-17%,-12%,12%,/,/
O=C(COc1ccccc1C(=O)O)Nc1nc2ccc([N+](=O)[O-])cc2s1,-1%,3%,0%,-1%,-23%,?,/,/
COc1cc2c(cc1OC)C(NNC(=O)c1ccc(Br)o1)=NC(C)(C)C2,0%,-24%,-10%,/,-29%,/,/,/
CN1CCN(C/C(=C2/N=C(c3ccccc3)OC2=O)N(C)C)CC1,7%,-1%,0%,9%,-4%,0%,-21%,-8.1%
COCCCNC(=O)Cn1cnc2sc(C)c(S(=O)(=O)N3CCN(c4ccccc4OC)CC3)c2c1=O,-1%,7%,-10%,8%&5%[46.1 µM],0%&0%,-6%&-26%[46.1 µM],-2%,-0.4%
Cc1cc(C)c(NC(=O)Cn2nnc(C(=O)NCCc3ccccc3)c2N)c(C)c1,10%,1%,-2%,-1%,2%,12%[46.1 µM],/,/
Cc1nc(Nc2cnc(/C=C/c3cc(C(=O)Nc4cccc(C(F)(F)F)c4)ccc3C)cn2)cc(N2CCNCC2)n1,4%,-21%,0%,/,-36%,/,/,/
CCCSc1nnc2nc3c(nn12)c1ccccc1n3C,-2%,-38%,13%,/,?,/,6%,-14%
Cc1cccc(NC(=O)c2cc(S(=O)(=O)N3CCCC3)cn2C)c1,-3%,-9%,-9%,/,-12%,/,/,/
Cc1ccccc1NC(=O)Nc1ccccc1C(N)=O,1%,-5%,-12%,9%,-10%,-14%,/,/
COc1ccccc1C(=O)c1c(C)c(CCC#N)n2ccccc12,-5%,-1%,5%,-9%[46.1 µM],-22%,?,/,/
Cc1ccc(N(C(=O)c2csnn2)C(C(=O)NC(C)(C)C)c2cccs2)cc1 (stereo not given),?,25%,-12%,0%,/,-22%,8%,6.3%
Cc1noc(/C=C/N(C)C)c1S(=O)(=O)N1CCCC(C(=O)Nc2ccc(F)cc2F)C1 (stereo not given),7%,?,-8%,-22%[46.1 µM],-15%&-9%,?,21%,-10%
C#CC(C)(CC)NC(=O)Cn1nnc(-c2cccc(C(F)(F)F)c2)n1 (stereo not given),-1%,/,4%,?,-20%,0%[46.1 µM],/,/
CC(=O)O[C@@H]1CC[C@]2(C)C3CC[C@@]4(C)C(C[C@@H](O)[C@@H]4O)C3[C@@H](OC(C)=O)C[C@H]2C1 (stereo not given in full),11%,/,0%,-3%[46.1 µM],-13%,18%[46.1 µM],/,/
CSC1=NCCN1C(=O)c1ccco1,17%,-51%,11%,/,-25%,0%,-3%,-1.6%
O=C(c1cccs1)N1CCN(c2ncccn2)CC1,7%,1%,-3%,7%,26%,5%,7%,-1.5%
CCn1nc(C)c2c(-c3ccccc3)cc(=O)n(C(C)C(=O)Nc3cc(C)ccc3C)c21 (stereo not given),/,/,/,19%[46.1 µM],-14%,/,-4%,-0.4%
Cc1ccc(-c2noc(CSc3nnc(C)n3-c3ccc(C)c(C)c3)n2)cc1,/,/,/,?,?,?,?,-10%
CCC(CC)NC(=O)Cc1ccc(F)cc1,-1%,1%,5%,13%[46.1 µM],-10%,7%[46.1 µM],/,/
CCOc1ccc(NC(=O)CCN2C(=O)c3ccccc3C2=O)cc1,-3%,3%,12%,/,-4%,/,/,/
CC(C)n1c(SCc2cc(=O)[nH]c3ccccc23)nc2c1c(=O)n(C)c(=O)n2C,2%,-5%,-10%,?,/,-19%,-4%,-1.9%
O=C(CSc1nccn1Cc1ccc(Cl)cc1)Nc1ccc2c(c1)OCO2,/,/,/,-1%[46.1 µM],-3%,/,-7%,-4.7%
Fc1ccccc1CNc1ncnc2sccc12,-1%,-13%,3%,-28%[46.1 µM],?,?,/,/
CSc1ccc(CNC(=O)c2ccc(NC(=O)C3=CSCCO3)cc2)cc1,3%,6%,-2%,/,35%[activator],/,/,/
O=C(NCCc1ccccc1F)C1CCC(=O)N(Cc2ccc(Cl)cc2)C1 (stereo not given),-2%,-6%,11%,/,9%,/,/,/
Cc1cc(C)c2c(N)c(C(=O)NN3CC(=O)N(c4ccccc4F)CC3=O)sc2n1,2%,1%,9%,-1%,-16%,0%,?,-7.1%
COc1cc(C(Nc2ccc3c(c2)OCO3)C(=O)NC2CCCCC2)cc(OC)c1OC (stereo not given),0%,?,-6%,1%,22%,?,4%,-2.0%
CCOc1ccc(NC(=O)CN(C)C(=O)C(C)Oc2ccc(Cl)cc2)cc1OCC (stereo not given),/,/,6%,?,-5%,-35%,/,/
COc1ccc(Cl)cc1NC(=O)CSc1c2c(nc3ccccc13)CCC2,/,/,/,4%[46.1 µM],?,-4%[46.1 µM],-17%,-6.2%
Cc1ccccc1N1CCN(Cc2c(C#N)c3ccccc3n2C)CC1,0%,-16%,4%,6%,0%,-27%,?,-0.6%
COC(=O)C1C(=O)NC(SC)=C(C#N)C1c1ccccc1F (stereo not given),23%,-1%,6%,-3%,-4%,20%,7%,0.0%
CCOC(=O)C(NC(=O)c1ccccc1)(Nc1cc(C)on1)C(F)(F)F (stereo not given),-3%,-8%,10%,-1%,9%,-16%[46.1 µM],-5%,-0.8%
C=CCOC(=O)C1=C(C)OC(N)=C(C#N)C1c1c(C)nn(-c2ccccc2)c1Cl (stereo not given),4%,-39%,2%,-2%,-1%,27%,5%,-11%
COc1ccc(C2N(c3cc(C)on3)C(=O)C3CCCN32)cc1OC (stereo not given),?,0%,-3%,-25%,5%,-3%,0%,3.8%
O=c1c2sc3ccccc3c2n(Cc2ccc(F)cc2)c(=O)n1Cc1ccco1,/,/,/,-3%[46.1 µM],-19%,7%[46.1 µM],-15%,-7.3%
CCS(=O)(=O)C1=NN2C(=N)/C(=C\c3ccc(OC(=O)c4ccco4)c(OC)c3)C(=O)N=C2S1,4%,1%,-9%,/,-4%,/,/,/
COc1ccc(S(=O)(=O)N2CCCCC2)cc1NC(=O)[C@@H]1CCCN1C(=O)c1cccs1,-2%,/,17%,?,46%[activator],9%,/,/
CCN(CC)c1ccc(C=C(c2nnnn2-c2ccc(C)cc2)c2nnnn2-c2ccc(C)cc2)cc1,-14%,23%,4%,/,26%,0%,32µM*,-4.9%

# Whole records as entered above.
# Profile of C=CCOC(=O)C1=C(C)OC(N)=C(C#N)C1c1c(C)nn(-c2ccccc2)c1Cl (stereo not given) : SARS PLpro yeast = 4%; NS1 function inh = -39%; RE007 growth inh = 2%; Lassa entry inh = -2%; StopGo reporter = -1%; Marburg entry inh = 27%; Cruzain noTriton = 5%; Cruzain inh Det = -11%
# Profile of CCS(=O)(=O)C1=NN2C(=N)/C(=C\c3ccc(OC(=O)c4ccco4)c(OC)c3)C(=O)N=C2S1 : SARS PLpro yeast = 4%; NS1 function inh = 1%; RE007 growth inh = -9%; Lassa entry inh = /; StopGo reporter = -4%; Marburg entry inh = /; Cruzain noTriton = /; Cruzain inh Det = /
